Assay outcomes: PubChem, several laboratories
eIF4H inh: inhibitors of RNA binding by human eIF4H | eIF4H fluorescence polarization binding assay | inhibition, % at 35 µM | 290,000 tested, 0.94% active | AID 2012;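 active means 50% or more with normal probe brightness, or confirmed in later tests; inconclusive means above 50% with abnormal brightness, or retests that disagree; inactive means below 50% or failed in later tests; about a fifth of its hits are not listed in these tables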;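 further: calls also rest on retests at 20 µM and on dose response follow-up; 0% = protein and probe with vehicle and 100% = probe without protein; strong numbers were not always called active; many hits fall short of the cut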
MT1-MMP act inh: blocks activation of human MT1-MMP | P50281 | HT1080 RFP-PRO-GFP cells, GFP/RFP ratio fluorescence, overnight; percent of plate control window, DMSO zero | GFP/RFP ratio change, % at 20 µM | 360,000 tested, 0.061% active | AID 651647;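 active means GFP/RFP ratio change of at least 30% with cell ATP level not reduced by more than half and red fluorescence within 50% of control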; further: strong numbers were not always called active
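Assay system: RFP-PRO-GFP reporter HT1080 cells; read-out basis: GFP/RFP fluorescence ratio; benchmarks: DMSO wells and RFP-L50D-GFP cells; doses: 20 µM single dose, 1% DMSO; schedule: overnight cell settling, then overnight compound exposure, 37 °C, 5% CO2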
CSC inhib: blocks cancer stem cells. cancer stem cell-like cells viability, luminescence. inhibition, % at 7.5 µM. 300,000 tested, 1.1% active. AID 2717;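 active means mean at 75% or more and at least half the replicates too; inconclusive means mean and replicates disagree; tested in HMLE shEcad cells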;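 further: 0% = median of negative and 100% = median of positive control wells; the first replicate is given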
PABP FP inh: blocks human PABP binding to poly(A) RNA; P11940; fluorescence polarization; inhibition, % at 35 µM; 290,000 tested, 1% active;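 active means 50% or more with normal probe brightness, or confirmed in later tests; inconclusive means above 50% with abnormal brightness, or retests that disagree; inactive means below 50% or failed in later tests; about a fifth of its hits are not listed in these tables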;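 further: calls also rest on retests at 20 µM and on dose response follow-up; controls were probe without protein and protein plus probe with vehicle; some compounds called inactive have numbers as strong as hits; many hits fall short of the cut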
Target sequence (P11940 whole entry, looked up): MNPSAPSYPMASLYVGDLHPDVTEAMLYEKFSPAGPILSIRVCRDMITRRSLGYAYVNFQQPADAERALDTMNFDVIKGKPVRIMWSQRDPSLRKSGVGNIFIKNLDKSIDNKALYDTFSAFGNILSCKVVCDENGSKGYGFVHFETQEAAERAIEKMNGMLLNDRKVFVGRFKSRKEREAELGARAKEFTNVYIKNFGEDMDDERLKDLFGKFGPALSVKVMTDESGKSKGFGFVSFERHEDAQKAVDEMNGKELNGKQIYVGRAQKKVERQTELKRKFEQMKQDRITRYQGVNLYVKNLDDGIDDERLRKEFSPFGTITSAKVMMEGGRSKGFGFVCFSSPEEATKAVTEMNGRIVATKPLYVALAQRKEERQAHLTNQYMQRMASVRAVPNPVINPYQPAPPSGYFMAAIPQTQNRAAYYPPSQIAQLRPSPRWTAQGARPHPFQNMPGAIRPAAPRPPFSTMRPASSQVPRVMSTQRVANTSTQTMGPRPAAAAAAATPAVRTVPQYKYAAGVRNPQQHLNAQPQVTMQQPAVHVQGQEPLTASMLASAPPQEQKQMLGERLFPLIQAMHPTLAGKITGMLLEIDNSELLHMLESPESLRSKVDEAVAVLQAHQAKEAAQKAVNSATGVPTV
Rce1 inhib: yeast Ras-converting enzyme inhibition | Q03530 | yeast membranes, quenched prenylated peptide cleavage fluorescence | calls only | 290,000 tested, 0.27% active;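 active means fall in fluorescence gain of 50% or more versus controls, with final raw signal at or below 3038400; inconclusive means same 50% fall but final raw signal above 3038400; inactive means fall in fluorescence gain under 50%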;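 further: plate controls were neutral control wells for no effect and wells lacking membranes for full effect; tested at 10 µM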
HIV Env fusion: blocks HIV Env-driven cell-cell fusion. HeLa-JRFL Env/CEM21 cell fusion, luciferase. inhibition, % at 12.3 µM. 360,000 tested, 1.1% active. AID 651610;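 active means mean replicate inhibition score of at least 50 and every replicate individually at or above 50; inconclusive means only one of the two criteria met; inactive means mean below 50 and not all replicates reaching 50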;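 further: 0% = plate neutral controls and 100% = maraviroc near 300 nM; one replicate is shown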
Yeast UUG start: modulators of start codon recognition fidelity in yeast. activity score, % at 18.7 µM. AID 602363. 350,000 tested, 0.13% active. S. cerevisiae UUG-firefly luciferase reporter, luminescence/redox ratio;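 active means replicate mean at a twofold rise or more, about +100% in these data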;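 further: firefly luciferase made from a UUG start codon reports start codon fidelity; reporter light over untreated wells divided by growth signal over untreated wells; some hits fall short of that in this replicate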
eIF4H inh retest: also measured in eIF4H inh; calls as there; inhibition, %; compound at 20 µM; confirmation average;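 mean of two retest wells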
PABP FP inh retest: recorded beside PABP FP inh, whose call it bears; inhibition, %; compound at 20 µM; confirmation repeats;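 mean of two retest wells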
MT1-MMP act inh RFP: also measured in MT1-MMP act inh; calls as there; RFP signal change, %; measured here: RFP expression control read;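 0 = vehicle wells; hits needed this value within 50% of zero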
Active calls of the source: *; i = inactive; u = inconclusive; x = not tested or not shown; + = active, no number; & = joins results of further samples; [ ] = remark or other dose. Compounds were not picked by outcome, and some 2.9% of all compounds hit somewhere here.

SMILES	eIF4H inh	MT1-MMP act inh	MT1-MMP act inh RFP	CSC inhib	PABP FP inh	Rce1 inhib	HIV Env fusion	Yeast UUG start	others
COc1ccc(Cl)cc1NC(=S)Nc1ccc(Cl)cn1	2	-1	0	-11	-2	i	-17	x
Cn1nnnc1SCC(=O)N1c2ccccc2Sc2ccccc21	-1	-2	2	-10	4	i	x	-4
Cc1ccc(NS(=O)(=O)c2cc(C(=O)NCCSC3CCCCC3)ccc2C)cc1	3	-28	-26	55	-7	i	55*	-5
O=c1c2[nH]c3ccccc3c2ncn1CCN1CCNCC1	0	3	2	-13	-1	i	-9	-24
O=C1NCCOC(=O)[C@@H](Cc2ccc(F)cc2)CC/C=C/C[C@@H]1CC(=O)N(CCO)Cc1ccccc1	x	3	0	-11	x	x	13	11
COc1ccc(N)cc1-n1c(C)ccc1C	85	x	x	-9	67	i	-22	x	eIF4H inh retest=36;PABP FP inh retest=25
CCN(CC)CCNC(=O)c1ccc(NC(=O)c2cccc(S(=O)(=O)N3c4ccccc4CC3C)c2)cc1 (stereo not given)	0	4	-3	22	13	i	3	15
COc1cccc(CNC(=O)c2cccs2)c1	-10	1	4	-3	-1	i	-1	-29
CC(C)OC(=O)c1cc(NC(=O)C2C3CCC(O3)C2C(=O)O)cc(C(=O)OC(C)C)c1 (stereo not given)	-10	x	x	1	-8	i	x	7
COc1ccc(C)cc1-n1nnnc1SCC1CCCCO1 (stereo not given)	-4	1	4	5	3	i	-22	-18
O=C(O)CCC(=O)OCC1CCCO1 (stereo not given)	1	-2	2	-20	1	i	-63	-17
CC(C)C(NS(=O)(=O)c1ccc2c(c1)OCCCO2)C(=O)O (stereo not given)	-11	4	2	2	-18	i	-14	x
O=C1CCCCCN1C(=O)c1cccc(C(=O)N2CCCCCC2=O)c1	0	3	-13	-5	5	i	x	-14
COc1ccccc1NC(=O)NC1(C(=O)N2CCCCCC2)CCCCC1	-8	4	2	x	8	i	x	-21
O=C1C2C3C=CC(C3)C2C(=O)N1/N=C/c1ccc(-c2ccccc2[N+](=O)[O-])o1 (stereo not given)	29	7	8	-4	4	i	-44	-10
Cc1ccc(NS(=O)(=O)c2cn(C)cn2)cc1	-3	1	5	-16	9	i	x	5
CCNc1nc(NCC)nc(C(=O)NN)n1	2	-6	-1	-12	1	i	-138	-8
Cc1ccc(Oc2c(C(N)=O)cc([N+](=O)[O-])cc2[N+](=O)[O-])cc1	-8	1	-7	+	9	i	x	x
CCN(CC)CCCCNc1ncc2cc(-c3cc(OC)cc(OC)c3)c(NC(=O)NC(C)(C)C)nc2n1	-11	-16	-5	-4	-3	i	x	2
COc1ccc(-c2nnc(SCC(=O)NCC3CCCO3)n2C)cc1 (stereo not given)	3	2	5	-1	-4	i	24	x
CSc1ccccc1NC(=O)CN(C)C(=O)Cn1c(=O)oc2ccccc21	x	1	4	-7	x	i	10	6
CSc1ccc(CNc2nnnn2C)cc1	-10	-3	1	-16	6	i	-2	-16
Cc1ccc[n+](C2C(c3ccc([N+](=O)[O-])cc3)C(C#N)=C([S-])NC2(O)C2CC2)c1 (stereo not given)	8	-3	-5	1	32	i	-1	x
COc1ccc(-c2ccc3ccccc3n2)cc1	2	1	-1	3	-1	i	-118	x
Cc1ccc(C)c(N2CCN(C(=S)Nc3ccc4nc(N5CCOCC5)cc(C)c4c3)CC2)c1	0	2	-1	25	-5	i	7	-24

In the list so far, these have four or more nitrogen atoms:
SMILES	eIF4H inh	MT1-MMP act inh	MT1-MMP act inh RFP	CSC inhib	PABP FP inh	Rce1 inhib	HIV Env fusion	Yeast UUG start	others
Cn1nnnc1SCC(=O)N1c2ccccc2Sc2ccccc21	-1	-2	2	-10	4	i	x	-4
O=c1c2[nH]c3ccccc3c2ncn1CCN1CCNCC1	0	3	2	-13	-1	i	-9	-24
CCN(CC)CCNC(=O)c1ccc(NC(=O)c2cccc(S(=O)(=O)N3c4ccccc4CC3C)c2)cc1 (stereo not given)	0	4	-3	22	13	i	3	15
COc1ccc(C)cc1-n1nnnc1SCC1CCCCO1 (stereo not given)	-4	1	4	5	3	i	-22	-18
CCNc1nc(NCC)nc(C(=O)NN)n1	2	-6	-1	-12	1	i	-138	-8
CCN(CC)CCCCNc1ncc2cc(-c3cc(OC)cc(OC)c3)c(NC(=O)NC(C)(C)C)nc2n1	-11	-16	-5	-4	-3	i	x	2
COc1ccc(-c2nnc(SCC(=O)NCC3CCCO3)n2C)cc1 (stereo not given)	3	2	5	-1	-4	i	24	x
CSc1ccc(CNc2nnnn2C)cc1	-10	-3	1	-16	6	i	-2	-16
Cc1ccc[n+](C2C(c3ccc([N+](=O)[O-])cc3)C(C#N)=C([S-])NC2(O)C2CC2)c1 (stereo not given)	8	-3	-5	1	32	i	-1	x
Cc1ccc(C)c(N2CCN(C(=S)Nc3ccc4nc(N5CCOCC5)cc(C)c4c3)CC2)c1	0	2	-1	25	-5	i	7	-24

Other results.
SMILES	eIF4H inh	MT1-MMP act inh	MT1-MMP act inh RFP	CSC inhib	PABP FP inh	Rce1 inhib	HIV Env fusion	Yeast UUG start	others
Cc1cc(C)c2c(N)c(C(=O)N3CCN(c4ncccn4)CC3)sc2n1	-7	2	4	-9	11	i	x	8
CCCn1c(-c2ccc(OC)cc2)nc2nc3ccccc3nc21	2	3	-2	x	-4	i	6	-8
COc1ccc(S(=O)(=O)N2Cc3ccccc3CC2C(=O)Nc2nccs2)cc1OC (stereo not given)	0	-3	4	-9	-6	i	x	-1
CCC(COC)Oc1cc(NCc2ccccc2)c2ncn(C(C)C)c2c1 (stereo not given)	x	-3	-14	22	x	x	-34	-28
Cc1cc(C)nc(NS(=O)(=O)c2ccc(Br)s2)c1	2	0	6	-9	11	i	17	-21
COc1ccc(N(CCCN2C(=O)c3cccc4cccc(c34)C2=O)C(=O)c2cccc(OC)c2)cc1	-2	-2	-10	18	-9	i	34	x
COc1ccc(C2=C(O)C(C)N(c3ccccc3)C2=N)cc1OC (stereo not given)	13	-2	-4	4	15	i	-25	-6
COc1ccc(CCCc2nnc(SCC(=O)Nc3nc(C)cs3)n2C)cc1	-6	-2	-3	-6	1	i	-32	x
Cc1ccc(-c2nn(CCC(=O)NN3CCOCC3)c(=O)c3ccccc23)cc1	-4	0	-1	-7	-5	i	7	10
CC(C)n1c(O)c(N=NC(=O)CNC(=O)Cc2ccc(Cl)cc2)c2ccccc21	-17	-3	-3	-17	-3	i	5	-14
Cc1ccc(C(C)C)c(OCCOCCN2CCNCC2)c1	x	0	0	45	x	i	8	0
Cc1cccc(S(=O)(=O)NC(=O)C2(C)CCN2C(=O)c2ccccc2CCc2ccccc2)c1 (stereo not given)	x	1	-4	x	x	x	8	-9
Cc1ccccc1C(=O)NCCCNC(=O)c1ccccc1C	x	-2	-2	11	x	i	-18	-2
COc1ccccc1C(=O)C1CCCN(C(=O)c2ccc3c(c2)OCCO3)C1 (stereo not given)	-8	-3	-6	-3	-4	i	22	x
Cc1ccc(-c2cc(C(=O)Nc3c(C)n(C)n(-c4ccccc4)c3=O)[nH]n2)c(O)c1C	3	2	1	-3	-8	i	-26	x
Cc1ccc(N2CCN(c3cc(C)nc4nc(C)nn34)CC2)c(C)c1	4	2	2	-11	-2	i	6	-2
COc1ccc(CC(=O)Nc2cc(S(=O)(=O)N3CCOCC3)ccc2N2CCCC2)cc1	x	1	2	x	x	x	6	-1
CC(OC(=O)c1cnccn1)C(=O)c1ccccc1 (stereo not given)	x	2	4	-10	x	i	x	x
COc1ccc(/C=C/C(=O)Nc2nc(C)cc(C)n2)cc1OC	-11	0	-1	-9	10	i	x	-11
COCCNC(=O)C1(C)CCCN(Cc2cc(-c3ccccc3)nn2C)C1 (stereo not given)	x	-2	2	x	x	x	10	-16
CC(C)CC1NC(=O)N(CC(=O)NC2CCCCC2)C1=O (stereo not given)	x	9	3	x	x	x	8	-15
Cc1cc(C)c2nc(SC3CCOC3=O)cc(C)c2c1 (stereo not given)	-6	1	4	1	14	i	18	x
CSc1ncc(C(C)=O)c(C)n1	-9	2	3	11	-8	i	4	x
CCCc1cc(=O)oc2cc(OCC(=O)NCCCn3ccnc3)c(Cl)cc12	-11	-2	1	33	-8	i	-3	-8
CC(C)n1nc(C(=O)Nc2nc3ccc(S(C)(=O)=O)cc3s2)c2ccccc2c1=O	1	2	-1	-7	0	i	6	-19
Continuation.
SMILES	eIF4H inh	MT1-MMP act inh	MT1-MMP act inh RFP	CSC inhib	PABP FP inh	Rce1 inhib	HIV Env fusion	Yeast UUG start	others
CCc1cc(Cn2nc(-c3ccccc3)cc2C(=O)NCc2ccc(C)cc2)on1	x	1	0	9	x	i	u	-19
CC(=O)c1sc(NC(=O)c2ccc(F)cc2)nc1-c1ccccc1	7	-4	-6	2	2	i	-68	x
O=C(Nc1ccccc1N1CCN(C(=O)c2ccc(Cl)cc2)CC1)c1ccc([N+](=O)[O-])o1	-11	2	-5	-6	7	i	x	-5
O=C(NCc1ccco1)/C(=C\c1ccco1)NC(=O)c1ccco1	20	-7	1	x	6	i	2	-8
CCCCC(=O)Nc1ccc(N2CCN(C(=O)CC)CC2)cc1	-11	1	6	-5	-10	i	-15	-15
N=C1/C(=C/c2cccn2Cc2ccc(Cl)cc2)C(=O)N=C2SC=CN12	-10	-11	-10	1	0	i	63*	x
COc1ccc(S(=O)(=O)Nc2cccc3c2O[C@H](CN(C)Cc2ccncc2)[C@@H](C)CN([C@H](C)CO)C3=O)cc1	x	2	-2	x	x	x	-15	-7&-5
CCC[N+](C)(C)C(C)C(OC(C)=O)c1ccccc1 (stereo not given)	12	-1	-1	-4	38	i	-4	-10
C=CCNC(=O)c1ccc(C2SCC(=O)N2Cc2ccccc2)cc1 (stereo not given)	3	-1	4	-10	15	i	-7	0
COc1cc2c(cc1OC)C(c1ccc([N+](=O)[O-])cc1)NCC2 (stereo not given)	0	0	1	-17	-10	i	-143	-21
O=C(C[C@H]1C[C@H](C(=O)N2CCOCC2)[C@@]2(CCC3CCCC3)c3[nH]c4cc(-c5ccco5)ccc4c3CCN2C1=O)NCCc1ccccn1	x	-2	-5	x	x	x	22	-29
CCN1N=C(c2cc(Cl)sc2Cl)CSC1=O	-2	-1	1	-19	14	i	-197	-13
O=C(N/N=C/c1ccccc1OC(=O)c1ccc2c(c1)OCO2)c1cccc(F)c1	-5	-3	3	-10	-4	i	5	x
CCOc1ccc(C(=O)NC(C(=O)NCc2ccccc2OC)C(C)C)cc1 (stereo not given)	4	-18	-18	-6	-2	i	21	x
C[C@H](CO)N1C[C@H](C)[C@@H](CN(C)S(C)(=O)=O)OCc2cnnn2CCCC1=O	x	4	7	x	x	x	17[16.7 µM]	-5&-1&-7
CCOc1ccc(/C=C2\NC(=S)NC2=O)cc1	3	2	4	-2	6	i	-490	x
COc1ccc(C(C(=O)NC2CCCCC2)N(Cc2ccco2)C(=O)CNC(=O)c2ccco2)cc1 (stereo not given)	x	4	4	-10	x	i	x	12

Already shown: an excerpt of the list.
SMILES	eIF4H inh	MT1-MMP act inh	MT1-MMP act inh RFP	CSC inhib	PABP FP inh	Rce1 inhib	HIV Env fusion	Yeast UUG start	others
CCOc1ccc(/C=C2\NC(=S)NC2=O)cc1	3	2	4	-2	6	i	-490	x
COc1ccc(C(C(=O)NC2CCCCC2)N(Cc2ccco2)C(=O)CNC(=O)c2ccco2)cc1 (stereo not given)	x	4	4	-10	x	i	x	12
